# Cruzain inh Det: qHTS Assay for Promiscuous and Specific Inhibitors of Cruzain (with detergent). hit rate 0.43% among 200,000. Cruzipain (Trypanosoma cruzi), P25779. AID 1478, 2009. Potency, µM, for the others: max response, negative = inhibition, most hits filed as inhibitors. purified cruzain, Z-FR-AMC fluorescence, 0.01% Triton;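 note: plate controls were neutral wells for no effect and buffer without enzyme for full effect; nearly all actives have a fitted effect of over 40% in size; top concentration of the series not given in the record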
# Target sequence (P25779 123-467 limits assumed): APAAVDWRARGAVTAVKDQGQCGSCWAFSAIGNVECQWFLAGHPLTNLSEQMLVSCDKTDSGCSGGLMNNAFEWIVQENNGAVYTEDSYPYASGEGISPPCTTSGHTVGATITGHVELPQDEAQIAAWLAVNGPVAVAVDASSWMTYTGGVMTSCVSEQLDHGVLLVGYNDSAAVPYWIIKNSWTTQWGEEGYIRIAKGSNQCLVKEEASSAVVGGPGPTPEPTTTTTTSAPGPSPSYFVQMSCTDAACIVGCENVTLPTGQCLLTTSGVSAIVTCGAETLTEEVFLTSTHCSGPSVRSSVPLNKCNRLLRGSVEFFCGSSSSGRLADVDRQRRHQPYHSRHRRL
#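 Sodium acetate buffer (100 mM, pH 5.5) containing 5 mM DTT and 0.01% Triton X-100 hosted 1.5 nM cruzain and test compound for 15 min at room temperature. Cleavage of 2 uM Z-FR-AMC was then tracked by fluorescence.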
# LASV entry inh: qHTS for Inhibitors of binding or entry into cells for Lassa Virus; Lassa virus pseudotype entry inhibition, cell reporter; control for the full effect not named in the record; Potency, µM (highest dose often 37.9 µM), for inactives: at the top dose activity change, negative = inhibition, most hits filed as inhibitors; hit rate 1.2% among 300,000; AID 540256, 2011; active means well fitted inhibition curve with a large enough effect; inconclusive means small, poorly fitted or top-dose-only effect, or effect the other way; inactive means flat fitted curve, though single readings scatter; tested in HEK293 cells; note: % is set by controls: 0 for no effect and ±100 for the full control effect; nearly all actives have a fitted effect of over 50% in size; luciferase read-out
# MARV entry inh: qHTS for inhibitors of binding or entry into cells for Marburg Virus; hit rate 1.8% among 300,000; Potency, µM (doses to about 37.8 µM), without a hit: top-dose activity change, negative = inhibition, usual class: inhibitors; Marburg virus pseudotyped entry inhibition, cell reporter; control for the full effect not named in the record; about a third of the inactives were read at about 46 µM; active = well fitted inhibition curve with a large enough effect; inconclusive = small, poorly fitted or top-dose-only effect, or effect the other way; inactive = flat fitted curve, though single readings scatter; tested in HEK293 cells; about a fifth of its hits are not listed in these tables; note: % is set by controls: 0 for no effect and ±100 for the full control effect; luciferase read-out
# NS1 function inh: qHTS Assay for Inhibitors of Influenza NS1 Protein Function; S. cerevisiae slowed by influenza A NS1, growth recovery by OD600; AID 2326, 2010; hit rate 0.4% among 270,000; Potency, µM (titrated, usually from 46.1 µM), inactives show top-dose activity, positive = more growth; active means well fitted rising curve with a large enough effect; inconclusive means small, poorly fitted or top-dose-only effect; inactive means no such curve, though single readings can be large or run the other way; note: nearly all actives have a fitted effect of over 50% in size
#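 A cell-based growth assay was used: compounds that relieve NS1-induced slow growth of budding yeast raise OD600. Assay medium was yeast nitrogen base with ammonium sulphate and -URA supplement, pH 6.0, with 2% galactose.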
# SARS PLpro yeast: qHTS of Yeast-based Assay for SARS-CoV PLP; Potency, µM (titrated, usually from 32.9 µM), without a hit: at the highest dose activity, positive = growth rescue; AID 485353, 2010; hit rate 0.19% among 330,000; S. cerevisiae expressing SARS-CoV PLpro, growth rescue; control for the full effect not named in the record; active means well fitted rising curve with a large enough effect; inconclusive means small, poorly fitted or top-dose-only effect; inactive means no such curve, though single readings can be large or run the other way; note: 0% is about no effect; nearly all actives have a fitted effect of over 55% in size; growth read by luminescence after 48 h
# Cruzain noTriton: qHTS Assay for Promiscuous and Specific Inhibitors of Cruzain (without detergent). Cruzipain (Trypanosoma cruzi), P25779. purified cruzain, Z-FR-AMC fluorescence, no detergent. Potency, µM, for the others: max response, negative = inhibition, hits mostly inhibitors. hit rate 2.3% among 200,000;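 note: plate controls were enzyme without inhibitor for no effect and buffer without enzyme for full effect; nearly all actives have a fitted effect of over 40% in size; top concentration of the series not given in the record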
#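 Detergent-free condition (0.00005% Triton X-100) in acetate buffer pH 5.5 with DTT. 1.5 nM enzyme and compound were pre-mixed 15 min, then 2 uM Z-FR-AMC substrate added; reaction progress from fluorescence change between first and third reads (60 s).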
# RE007 growth inh: qHTS Assay for Inhibitors of the HIV-1 protein Vpr | S. pombe RE007 Vpr strain, BacTiter-Glo ATP luminescence, 24 h; control for the full effect not named in the record | Potency, µM (top dose mostly 92.2 µM), for the others: at the highest dose activity change, negative = less growth | hit rate 0.21% among 360,000; active = well fitted falling curve with a large enough effect; inconclusive = small, poorly fitted or top-dose-only effect; inactive = no such curve, though single readings can be large or run the other way;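 note: % is set by controls: 0 for no effect and ±100 for the full control effect; nearly all actives have a fitted effect of over 50% in size; the assay follows cell death caused by Vpr and the record does not say whether a fall means rescue or toxicity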
#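 Fission yeast strain RE007, carrying one chromosomally integrated HIV-1 vpr copy, was seeded at OD 0.01 in PMG+AL medium with 23 nL pinned compound. After 24 h at 30 °C and 99% humidity, viability was read by BacTiter-Glo luminescence.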
# StopGo reporter: High Throughput Screening for Foot and Mouth Disease Virus Antivirals; human cells with a luciferase reporter of 2A StopGo recoding; control for the full effect not named in the record; Potency, µM (series often up to 57.9 µM), without a hit: top-dose signal change, negative = less light; hit rate 1.2% among 410,000; active = well fitted falling curve with a large enough effect; inconclusive = small, poorly fitted or top-dose-only effect; inactive = no such curve, though single readings can be large or run the other way; tested in HEK293T cells; note: % is set by controls: 0 for no effect and ±100 for the full control effect; nearly all actives have a fitted effect of over 45% in size; luciferase light after 4 h
# Active calls of the source: *; ? = inconclusive; · = no result given; & = joins results of further samples; [ ] = another dose, or the depositor's remark. Unless noted, calls come from the whole dose curve; as a rule, active = well fitted curve in the direction sought with a large enough effect; inconclusive = small, poorly fitted or top-dose-only effect, or another doubt; inactive = no such curve, though single readings can be large; an effect the other way counts as inactive or inconclusive. Potency is the fitted concentration of half-maximal effect.
SMILES,Cruzain inh Det,LASV entry inh,MARV entry inh,NS1 function inh,SARS PLpro yeast,Cruzain noTriton,RE007 growth inh,StopGo reporter
COC(=O)c1ccc(S(=O)(=O)N2C3CCC2CC(NC(=O)C2CC2)C3)cc1 (stereo unspecified),8.2%,-8%,8%,5%,4%,3%,4%,·
CCc1cccc(C)c1N(C(=O)Cn1c(CO)nc2ccccc21)C(C)COC (stereo unspecified),-2.2%,?,10%,-1%,0%,105%,-10%,-15%
O=[N+]([O-])c1ccc(N2CCN(Cc3ccc4c(c3)OCO4)CC2)nc1,·,?,?,-22%,3%,·,?,?
O=C(O)C1CC=CCC1C(=O)N1CCN(c2nc(-c3ccccc3)c3ccccc3n2)CC1 (stereo unspecified),-4.2%,-3%,?,-2%,2%,?,6%,-26%
Cc1ccc(OCC(=O)Nc2cc(S(=O)(=O)N3CCOCC3)ccc2N2CCCC2)cc1,·,0%,-31%,·,0%,·,5%,-5%
O=C(O)CC(c1ccc(C(F)(F)F)cc1)N1Cc2ccccc2C1=O (stereo unspecified),·,·,·,1%,0%,·,2%,-9%
O=C1[C@@H]2CSCN2C(=O)CN1Cc1ccccc1F,·,10%[46.1 µM],12%[46.1 µM],0%,0%,·,-4%,-3%
COc1ccc(C)cc1-n1c(N)c(C#N)c(C#N)c1-c1ccc(OC)c(OC)c1OC,4.5%,-13%,-19%&-19%,-2%,4%,1%,6%,2%
O=C(c1cccc(C(F)(F)F)c1)N1CCN(CCc2ccccc2)CC1,·,?,?,-5%,3%,·,8%,-2%
CN(C)C(CNC(=O)CCc1nc2sc3c(c2c(=O)[nH]1)CCCC3)c1ccccc1 (stereo unspecified),·,0%,10µM*,·,2%,·,-11%,-22%
CCOC(=O)C1C(c2ccccc2)C(C(=O)OCC)S(=O)(=O)C(CCN(CC)CC)S1(=O)=O (stereo unspecified),·,-15%,?,3%,0%,·,13%,-5%
COc1cc(C(=O)N(C)C2CCCCC2)ccc1OC1CCN(C(C)=O)CC1,·,·,·,-14%,1%,·,-14%,-7%
O=C(Nc1ccc(S(=O)(=O)NC2=NCCCCC2)cc1)c1ccccc1Cl,·,·,·,-3%,-1%,·,5%,-3%
O=[N+]([O-])c1ccc(C=Nc2ccc(Cl)cc2Cl)s1,-3.6%,16µM*,5.8µM*,-120%,-30%,-12%,3.2µM*,?
CCc1c(C)nc2c(-c3ccccc3)c(-c3ccccc3)[nH]n2c1=O,·,·,·,4%,-1%,·,-4%,0%
Cc1ccc(NS(=O)(=O)c2ccc3c(c2)n(C)c(=O)n3C)cc1,·,·,·,0%,-2%,·,-9%,18%
Cc1ccccc1NC(=O)C(=O)NCC1(c2ccccc2)CCCC1,-0.9%,-23%[46.1 µM],-3%[46.1 µM],·,·,0%,·,-20%
CCc1ccc(NC(=O)Cc2ccc(NC3=NC4CS(=O)(=O)CC4S3)cc2)cc1 (stereo unspecified),·,·,·,9%,3%,·,2%,3%
C#CCOc1nc(OCC#C)nc(OCC#C)n1,1.7%,10%,?,-6%,7%,8%,24%,-13%
Cc1ccc(O)c(NC(=O)c2cc(-c3ccccc3)on2)c1,·,?,?,21%,?,·,7%,66%[activator]
CCOC(=O)c1sc(N(Cc2ccccc2)C(=O)COC(=O)c2ccc(O)cc2)nc1C,-4.5%,2.1µM*,?,-27%,14%,16µM*,4%,0%
COc1ccc(-c2ccc(=O)n(Cc3cccc(Cl)c3)n2)cc1,·,·,·,4%,-3%,·,-7%,-18%
C/C(Cc1ccccc1)=N\NC(=O)CNC(=O)c1ccc(Cl)cc1,·,-12%[46.1 µM],21%[46.1 µM],6%,1%,·,21%,-4%
CCSc1nn2c(=O)c3ccccc3nc2s1,-2.8%,-11%,4%,-20%,-1%,-6%,?,20%
Cc1ccc(NS(=O)(=O)c2cnc(N)nc2)c(C)c1,-3.0%,-34%[46.1 µM],·,·,·,-1%,·,-8%

# Remaining list, next part
SMILES,Cruzain inh Det,LASV entry inh,MARV entry inh,NS1 function inh,SARS PLpro yeast,Cruzain noTriton,RE007 growth inh,StopGo reporter
Fc1ccc(Nc2nc(Oc3ccccc3F)nc(N3CCCC3)n2)cc1,7.5%,?,?,2%,-7%,1%,-11%,-27%
CCOc1cc(S(=O)(=O)n2ccnc2C(C)C)ccc1Cl,0.8%,-17%[46.1 µM],·,·,·,-11%,·,-23%
COC(=O)Cn1c(=O)oc2ccc(C)cc21,·,11%,4%[46.1 µM],4%,0%,·,28%,-3%
CCC(C)NC(=O)c1ccccc1NC(=O)CN1C(=O)c2cccc3cccc1c23 (stereo unspecified),-5.3%,-14%[46.1 µM],0%[46.1 µM],·,·,2%,·,11%
COc1ccc(C)cc1Nc1nc2cc(Cl)c(Cl)cc2nc1-n1nc(C)cc1C,0.3%,13%[46.1 µM],-13%[46.1 µM],·,·,-6%,·,-6%
CCc1nc2c(sc3nc4c(cc32)COC(C)(C)C4)c(=O)n1Cc1ccccc1,-1.1%,10%[14.3 µM],?,10%,-3%,?,7%,20%
O=S(=O)(c1cc(C(F)(F)F)ccc1Cl)N1CCN(c2ccccn2)CC1,·,·,·,-12%,-1%,·,5%,-4%
CCC(=O)N1CCc2cc(S(=O)(=O)N3CCN(c4ccccc4Cl)CC3)ccc21,·,8%[46.1 µM],16%[46.1 µM],-2%,?,·,-3%,1%
O=C(COC(=O)/C=C/c1ccccc1)NCCNC(=O)COC(=O)/C=C/c1ccccc1,·,?,3%[46.1 µM],·,0%,·,-13%,-5%
O=C(NC(=S)Nc1ccc(Cl)cn1)C(c1ccccc1)c1ccccc1,-10%,?,?,-7%,-1%,?,-13%,-20%
COc1ccc(OC)c(NC(=O)N2CCCC(C(=O)c3ccccc3OC)C2)c1 (stereo unspecified),·,-21%[46.1 µM],-5%[46.1 µM],-4%,-1%,·,-19%,0%
COC(=O)c1c(NC(=O)CCS(=O)(=O)c2ccccc2)sc2c1CCN(C)C2,·,0%,-3%,7%,1%,·,-5%,-8%
CC(=O)N1CCN(S(=O)(=O)c2cccc(C(=O)NNC(=O)COc3ccc(Cl)cc3C)c2)CC1,·,-11%,?,·,1%,·,1%,-13%
O=C(NCc1ccco1)c1cc(-c2ccc3c(c2)OCO3)on1,4.8%,-14%,?,1%,-3%,-10%,-7%,65%[activator]
COc1ccc2c(C)c(CCC(=O)NCCc3ccccc3OC)c(=O)oc2c1,-3.3%,-4%[46.1 µM],-16%[46.1 µM],·,·,-6%,·,-5%
CC(=O)Nc1ccc(NC(=O)c2ncoc2-c2ccco2)cc1,-3.7%,-3%[46.1 µM],·,·,·,-8%,·,0%
O=C(C1CCC1)N1CCc2cc(S(=O)(=O)NCC3COc4ccccc4O3)ccc21 (stereo unspecified),4.0%,3%,11%[46.1 µM],-13%,2%,-11%,-6%,10%
O=C(CCNC(=O)c1ccccc1)Oc1ccc([N+](=O)[O-])cc1,-22%,?,24%,-21%,0%,25µM*,-11%,21%
Cc1nc2ccccc2c(=O)n1CCc1ccccc1,·,·,·,-8%,9%,·,9%,-8%
Cc1ccc(C(=O)CC2(O)C(=O)N(C)c3ccccc32)o1 (stereo unspecified),2.7%,·,·,?,-12%,4%,9%,-2%
COc1cc([N+](=O)[O-])ccc1-c1ccc(/C=N/NC(N)=O)o1,·,13%,8%[46.1 µM],-3%,3%,·,2%,-11%
Clc1ccc(CNC2CCCC2)cc1,5.4%,13%,-15%,2%,-2%,10%,9%,·
NS(=O)(=O)c1ccc(NC=C2C(=O)OC3(CCCCC3)OC2=O)cc1,-10%,37%,-3%,2%,14%,-1%,18%,0%
COc1ccc(NS(=O)(=O)c2cccc(NC(=O)c3ccc(S(=O)(=O)N4CCCCCC4)cc3)c2)cc1,-3.6%,8.2µM*,3.5µM*,9%,-13%,?,-18%,0%
O=C(NC(=S)NCCSc1ccccc1)c1cccnc1,-6.7%,7%,?,-5%,10µM*,-4%,5%,11%

# (next part)
SMILES,Cruzain inh Det,LASV entry inh,MARV entry inh,NS1 function inh,SARS PLpro yeast,Cruzain noTriton,RE007 growth inh,StopGo reporter
CCOC(=O)C1CCCN(C(=O)c2ccc(Cn3c(=S)[nH]c4cc(C(=O)OC)ccc4c3=O)cc2)C1 (stereo unspecified),·,-20%,?,·,6%,·,-10%,-26%
Cc1ccc(S(=O)(=O)Nc2c3ccccc3nc(=O)n2-c2ccccc2)cc1,7.9%,-16%,-1%,11%,-1%,-24%,4%,18%
COc1ccc(N2CCN(C(=O)CCCn3c(=O)[nH]c4ccsc4c3=O)CC2)cc1,-4.3%,·,2%,3%,-1%,-6%,6%,-16%
CC(C)(C)NC(=O)c1ccccc1NC(=O)C1CCCO1 (stereo unspecified),·,-22%[46.1 µM],-13%[46.1 µM],3%,1%,·,-1%,-17%
COC(=O)C1=C(C)N(C)C(=O)NC1c1cc2c(cc1Br)OCO2 (stereo unspecified),·,·,·,8%,0%,·,-12%,-19%
COc1ccc(C(=O)c2coc3ccc(O)cc23)cc1,5.1%,·,·,-8%,-3%,-7%,14%,-8%&-32%
Cc1cc(C)cc(N2C(=O)CSC23C(=O)N(CC(=O)NC2CCCCC2)c2ccccc23)c1 (stereo unspecified),-3.4%,?,·,·,·,-10%,·,0%
CCOc1ccc(CCNC(=O)COC(=O)/C=C/c2ccc(OC)c(OC)c2)cc1OCC,·,·,·,-1%,26%,·,9%,-9%
FC(F)(F)c1ccccc1/C=N/n1c(C2CCCCC2)n[nH]c1=S,·,·,·,-2%,-4%,·,5%,-1%
C=CCNS(=O)(=O)c1ccc(OCC(=O)OC)cc1,11%,12%,-10%,6%,-5%,3%,-4%,·
CCCc1cc(C(=O)Nc2c(C)nn(Cc3c(Cl)cccc3Cl)c2C)no1,-0.8%,4µM*,?,·,·,-15%,·,-15%
